UCH37 inh = inhibitors of human deubiquitinating enzyme UCH37; purified proteasome/UCH37, Ub-AMC cleavage fluorescence; inhibition, % (test concentration not listed); hit rate 0.33% among 330,000;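 active means mean of two replicates above 20%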;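 further: 0% = compound-free wells with enzyme and 100% = wells lacking proteasome; stock transfer was 100 nL into about 20 µL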
Target sequence (Q9Y5K5 whole entry, looked up): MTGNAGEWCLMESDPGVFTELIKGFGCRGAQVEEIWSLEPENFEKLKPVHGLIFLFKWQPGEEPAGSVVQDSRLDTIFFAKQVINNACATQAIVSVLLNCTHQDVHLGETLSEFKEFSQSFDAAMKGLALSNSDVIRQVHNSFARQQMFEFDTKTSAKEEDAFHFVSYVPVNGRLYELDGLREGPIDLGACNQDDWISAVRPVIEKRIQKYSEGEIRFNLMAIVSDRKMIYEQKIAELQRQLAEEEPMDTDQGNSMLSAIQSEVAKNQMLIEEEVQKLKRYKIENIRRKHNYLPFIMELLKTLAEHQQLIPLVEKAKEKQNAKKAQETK
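System: Proteasome-associated human UCH37 deubiquitinase; Input: 0.15 nM proteasome in added enzyme buffer; Also added: Ub-AMC substrate from 1 µM stock; Incubation: 30 min compound-proteasome preincubation then 25 min substrate reaction, room temperature; Detection: fluorescence, ex 355 nm, em 460 nm; Read-out: % inhibition of Ub-AMC cleavage fluorescence; Benchmarks: no-proteasome and no-compound wells.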
HNF4A DNA FP = change in binding of human HNF4 alpha to DNA | P41235 | HNF4a-FITC DNA binding, fluorescence polarization, 1 h | activity change, % at 10 µM | hit rate 0.3% among 360,000 | AID 1224865; in the data active means activity change above about 30%, passing the limit was not always enough;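 further: controls were the assay level and a saturating level of protein; the project sought stronger binding though the title names inhibitors; some compounds called inactive have numbers as strong as hits; positive values seem to mean higher polarization but the record does not say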
Target sequence (P41235 whole entry, looked up): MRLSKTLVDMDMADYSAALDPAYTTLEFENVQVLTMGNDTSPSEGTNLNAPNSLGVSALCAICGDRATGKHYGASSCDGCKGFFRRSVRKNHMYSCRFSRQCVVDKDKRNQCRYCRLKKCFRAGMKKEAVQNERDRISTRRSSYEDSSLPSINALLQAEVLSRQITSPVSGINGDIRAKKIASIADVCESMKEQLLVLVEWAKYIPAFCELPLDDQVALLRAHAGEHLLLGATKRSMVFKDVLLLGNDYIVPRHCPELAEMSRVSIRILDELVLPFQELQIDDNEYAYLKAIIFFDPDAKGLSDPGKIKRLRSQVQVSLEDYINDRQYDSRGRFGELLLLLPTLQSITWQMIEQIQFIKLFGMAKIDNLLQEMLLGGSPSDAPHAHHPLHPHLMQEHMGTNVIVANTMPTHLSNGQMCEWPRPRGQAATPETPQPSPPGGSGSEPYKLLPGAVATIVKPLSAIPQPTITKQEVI
FGF22 binding = shifts melting point of recombinant human FGF22; Q9HCT0; recombinant FGF22 thermal shift, SYPRO orange fluorescence; percent of sucrose octasulfate shift, DMSO zero; calls only at 9.99 µM; hit rate 1.5% among 340,000;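 active means melting point raised past a set limit in the mean and every replicate; three in four hits are not shown here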
Target sequence (Q9HCT0 whole entry, looked up): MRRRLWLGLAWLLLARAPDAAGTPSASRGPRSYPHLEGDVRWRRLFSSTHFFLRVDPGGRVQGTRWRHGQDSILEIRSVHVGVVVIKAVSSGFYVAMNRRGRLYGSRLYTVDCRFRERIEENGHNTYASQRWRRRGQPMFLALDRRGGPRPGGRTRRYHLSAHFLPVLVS
ALR H2O2 inh = blocks human ALR sulfhydryl oxidase activity; P55789; purified ALR, DTT oxidation, H2O2 HRP-luminol luminescence; inhibition, % (test concentration not listed); hit rate 3.8% among 290,000; AID 485317;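 active means mean and each replicate at 75% or more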;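 further: stock transfer was 7.5 nL into about 7.5 µL; 0% = neutral wells and 100% = wells with inactivated enzyme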
E coli growth = inhibitors of Escherichia coli growth; hit rate 0.21% among 330,000; OD600 absorbance (concentration not given with the values); OD600, 23 h; hits give low values;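 active means OD600 absorbance below the run mean of sample wells minus 3.6 SD, in any replicate, cut at about 0.56 in these data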;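 further: stock transfer was 300 nL into about 60 µL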
rRNA inh HTS = inhibitors of bacterial rRNA selective over humanized ribosomes | hit rate 1.6% among 350,000 | E. coli WT GFP vs humanized-ribosome RFP mutants, fluorescence, 24 h; hits give low values; DMSO median 0, no signal -100 | AID 720706 | GFP signal change (wild-type ribosome), % (concentration not given with the values);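 active means significant combined selectivity score with lowered wild-type GFP, culture density cut under 30%, mutant RFP and density less affected; inactive means any of these conditions unmet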; further: one replicate is shown; some compounds called inactive have numbers as strong as hits
Beta2AR agonist = agonists of human beta-2 adrenergic receptor inducing internalization; P07550; hit rate 0.43% among 340,000; response, % (test concentration not listed); Am2.2-beta2AR cells, FAP receptor internalization, flow cytometry; reference of the scale not given here;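 active means response above a set limit, near 3 SD of response in nonfluorescent compounds, cut at about 42% in these data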;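 further: stock transfer was 100 nL into about 11 µL; a reference agonist was the positive control; negative values mostly stem from fluorescent compounds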
rRNA inh HTS OD600 = recorded beside rRNA inh HTS, whose call it bears; OD600 change, %; measured here: OD600 growth;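 optical density of the mix in the first replicate; 0 = DMSO median and -100 = no signal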
rRNA inh HTS RFP = also measured in rRNA inh HTS; calls as there; RFP signal change, %; measured here: RFP humanized mutant strains;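 first replicate; 0 = DMSO median and -100 = no signal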
* hit, by the source's call; i = inactive; · = not tested or not shown; & = joins results of further samples.

SMILES	UCH37 inh	HNF4A DNA FP	FGF22 binding	ALR H2O2 inh	E coli growth	rRNA inh HTS	rRNA inh HTS OD600	rRNA inh HTS RFP	Beta2AR agonist
Cc1ccc(S(=O)(=O)N2CC(C(=O)O)Oc3ccccc32)cc1 (stereo unspecified)	-1.7	-2.0	i	3	0.68	5	0	-3.1	10
C[C@@H]1CCCCO[C@H](CN(C)C(=O)NC2CCCCC2)[C@@H](C)CN([C@H](C)CO)C(=O)c2cc(NC(=O)c3ccccc3)ccc2O1	·	3.5	i	·	·	4&-2	1&2	3.0&-0.3	·
CC1CCN(c2ccccc2N)CC1	1.5	0.8	·	1	0.71	·	·	·	2
Cc1cc2c(NCCc3ccccc3)ncnc2s1	1.0	-1.8	i	-2	0.69	-24	-22	-5.4	7
COc1ccc(/C(O)=C2/C(=O)C(=O)N(Cc3cccnc3)C2c2ccccn2)cc1 (stereo unspecified)	9.5	1.4	·	1	0.7	·	·	·	0
Cc1ccc(C(=O)N2CC3(C)CN(C(=O)c4ccc(C)cc4)CC(C)(C2)C3=O)cc1	1.1	1.1	i	·	0.71	9	18	-0.1	-7
COC(=O)C1CSC(C(=O)OC)N1C(=O)CN1CCN(c2ccccc2)CC1 (stereo unspecified)	5.4	2.4	i	91*	0.65	14	13	2.5	10
Cc1cc(=O)oc(C)c1C(=O)NC12CC3CC(CC(C3)C1)C2	2.8	-0.2	·	-25	0.74	·	·	·	1
COc1ccc(C(=O)NC(=S)N2CCN(c3ccc([N+](=O)[O-])cc3)CC2)cc1	2.6	1.6	i	·	0.67	-9	3	7.8	-1
O=C(Cn1cnc2c(nnn2-c2ccccc2)c1=O)N1CCOCC1	5.5	1.9	i	-2	0.78	1	1	-1.2	-3
COc1cc(/C=C/C(=O)OCC(=O)NC(C)c2ccccc2)cc(OC)c1OC (stereo unspecified)	-14	3.5	i	-1	0.72	-13*	-9.6*	5.2*	18
O=C(Nc1ccccc1C(=O)N1CCOCC1)c1ccncc1	-1.7	1.5	·	-4	0.72	·	·	·	0
O=C(Cc1ccccc1)CC(CC(=O)c1ccccc1)c1ccccc1 (stereo unspecified)	·	1.1	i	·	·	-31	-29	-5.0	·
O=C(NC(=S)N(CCO)Cc1ccccc1)c1ccc(S(=O)(=O)N2CCCC2)cc1	3.2	1.2	i	71	0.68	-39	-45	-13	4
Cc1ccc(CNC(=O)CCc2c(C)nc3c(c(C)nn3-c3ccc(C)cc3)c2C)cc1	-58	-6.3	i	-4	0.75	12	12	-0.5	-16
CS(=O)(=O)CCSc1ncccc1C(=O)NCc1cccs1	4.7	3.0	i	-4	0.66	6	-8	1.6	-5
CCN(C(=O)CN1C(=O)S/C(=C\c2ccccc2Cl)C1=O)C1CCS(=O)(=O)C1 (stereo unspecified)	·	-0.4	i	·	·	-4	0	3.6	·
CC12CCC(C(=O)Nc3ccccc3N3CCOCC3)(CC1=O)C2(C)C (stereo unspecified)	0.9	-0.2	·	-4	0.68	·	·	·	5
Cc1ccc(N(C(=O)CNC(=O)c2ccco2)C(C(=O)NC2CCCCC2)c2cccnc2)cc1F (stereo unspecified)	0.4	0.6	i	·	0.65	·	·	·	-12
O=c1c2ccccc2nc(CSc2nnnn2-c2ccccc2)n1-c1cccc(C(F)(F)F)c1	-3.4	-1.7	·	-3	0.69	·	·	·	21
Brc1cccc(CNCC2CCCO2)c1 (stereo unspecified)	2.5	-3.0	i	·	0.66	5	17	0.9	3
Cc1nn(-c2ccccc2)c2nc(C(Cl)(Cl)Cl)[nH]c(=O)c12	4.5	-4.9	i	-11	0.69	-3	-4	-4.0	-3
COc1ccc(S(=O)(=O)Cc2ccc(C(=O)NCc3ccccc3)o2)cc1	2.1	-0.8	i	1	0.66	-2	-11	0.1	1
CCO/C=N/c1c(C#N)c(CC#N)nn1-c1ccccc1	·	3.0	·	-15	·	·	·	·	6
O=C(COC(=O)CN1C(=O)C(=O)c2ccccc21)OCN1C(=O)c2ccccc2C1=O	0.0	-2.0	·	0	0.63	·	·	·	-3
COCCn1c(SCC(=O)Nc2ccc(OC)c(S(N)(=O)=O)c2)nc2ccccc2c1=O	1.8	-2.4	i	-12	0.73	-2	-2	-4.5	1
O=C(CCC1CCCN(C(=O)CCN2CCCCC2=O)C1)NCc1ccccc1F (stereo unspecified)	-1.2	0.6	i	3	0.67	6	5	2.5	-3
CC1CCCCC1NC(=O)COC(=O)c1cc(=O)c2ccccc2o1 (stereo unspecified)	1.5	1.5	i	-3	0.69	29	12	-3.3	2
COc1ccc(/C=N\NC(=O)c2sccc2C)cc1Cn1nc(C)cc1C	·	4.5	i	0	·	-14	2	3.1	-4
O=C(O)c1ccccc1/C=N/NC(=O)c1cc(-c2ccco2)nc2ccccc12	·	-50	i	-1	·	12	6	3.9	-13

Next part; the last 4 above are carried over.
SMILES	UCH37 inh	HNF4A DNA FP	FGF22 binding	ALR H2O2 inh	E coli growth	rRNA inh HTS	rRNA inh HTS OD600	rRNA inh HTS RFP	Beta2AR agonist
O=C(CCC1CCCN(C(=O)CCN2CCCCC2=O)C1)NCc1ccccc1F (stereo unspecified)	-1.2	0.6	i	3	0.67	6	5	2.5	-3
CC1CCCCC1NC(=O)COC(=O)c1cc(=O)c2ccccc2o1 (stereo unspecified)	1.5	1.5	i	-3	0.69	29	12	-3.3	2
COc1ccc(/C=N\NC(=O)c2sccc2C)cc1Cn1nc(C)cc1C	·	4.5	i	0	·	-14	2	3.1	-4
O=C(O)c1ccccc1/C=N/NC(=O)c1cc(-c2ccco2)nc2ccccc12	·	-50	i	-1	·	12	6	3.9	-13
CC(C)CCNc1nc(N)c([N+](=O)[O-])c(NC2CCCCC2)n1	2.6	-1.0	i	-3	0.64	12	20	1.3	5
CC1(Cc2ccc3c(c2)OCO3)NC(=O)NC1=O (stereo unspecified)	1.1	0.8	·	·	0.7	·	·	·	14
CCNc1nc(NC(C)C)nc(SCCOC(=O)c2ccccc2)n1	1.6	-0.2	i	11	0.63	-26	-48	-12	-4
CC(=O)c1ccc2c(c1)Cc1cc(C(C)=O)ccc1-2	-1.3	2.9	·	-4	0.66	·	·	·	1
COc1ccc(/C=N/NC(=O)c2cccc(NC(=O)c3ccc(Cl)cc3)c2)c(OC)c1	·	11	·	-8	·	·	·	·	10
COc1cccc(C2C(C(=O)Nc3nc4ccccc4s3)=C(C)NC3=C2C(=O)CC(C)(C)C3)c1OC (stereo unspecified)	-28	-3.0	·	-4	0.71	·	·	·	-6
COc1cc(C(N)=O)cc(Br)c1OCc1ccccc1	-0.9	2.5	i	9	0.69	-28*	-9.5*	-1.4*	0
O=C(NCC(c1ccco1)N1CCCC1)c1sc2cc(F)ccc2c1Cl (stereo unspecified)	5.4	4.5	i	-4	0.67	4	9	26	-4
Cc1cc(C)c2nc3sc(=Cc4ccc(-c5ccccc5C(=O)O)o4)c(=O)n3c2c1	·	72	i	·	·	-1	11	20	·
Cn1ccnc1SCCNC(=O)C1CCC(=O)N(Cc2ccc(Cl)cc2)C1 (stereo unspecified)	0.3	-0.1	i	-2	0.63	1	1	-1.0	1
Cc1cccc(-n2c(=O)[nH]c3c(C(N)=O)nc(C(C)C)nc32)c1	-48	0.1	·	0	0.69	·	·	·	2
CCCCC1=CC2=CC(=O)C(C)(OC(=O)CC)C(=O)C2=CN1CCc1c[nH]c2ccccc12 (stereo unspecified)	-0.7	13	i	·	0.71	9	9	3.4	3
COc1ccc(-c2csc3ncnc(N4CCN(S(=O)(=O)c5ccc(C)cc5)CC4)c23)cc1	-0.1	3.2	i	-2	0.73	3	9	0.9	1
CCc1ccccc1N(CC(=O)N1CCCCCC1)S(C)(=O)=O	-1.0	0.3	i	2	0.73	-5	1	-3.9	4
Cc1cc(-c2ccccc2C(=O)O)on1	3.1	2.3	·	-6	0.69	·	·	·	-1
CC(C)(C=O)Cc1cc(C(C)(C)C)c(O)c(C(C)(C)C)c1	2.2	0.4	i	-7	0.71	0	5	-0.4	8
O=C(NCc1ccco1)C(Cc1ccccc1)NS(=O)(=O)c1cccc2nsnc12 (stereo unspecified)	2.8	-1.4	·	5	0.63	·	·	·	6
Cc1cccc(Cl)c1NC(=S)N1CCN(c2ccc([N+](=O)[O-])cn2)CC1	2.6	-0.2	i	·	0.65	-8	-2	6.4	1
Cc1ccc(OCC(=O)O/N=C(\N)c2cccc([N+](=O)[O-])c2)cc1C	4.3	4.3	i	·	0.67	15	6	2.0	2
Cn1c(N)c(C(=O)COC(=O)Cc2ccc(Cl)cc2)c(=O)n(C)c1=O	3.0	3.9	i	·	0.68	1	4	-0.5	3
Cn1c(=O)[nH]c(=O)c2c1nc(CN(Cc1ccccc1)Cc1ccccc1)n2CCN1CCOCC1	1.9	-2.1	·	-7	0.63	·	·	·	-5
C=CCn1c(CNC(=O)c2cccs2)nnc1SCC(=O)Nc1ccc(C(=O)O)cc1	-0.3	-1.1	·	1	0.69	·	·	·	-1
Cc1ccccc1NC(=O)NC1(C(=O)NCCCN2CCOCC2)CCCCC1	35*	0.2	·	-1	0.66	·	·	·	3
CCCN1CNc2c(c(=O)[nH]c(=S)n2-c2ccc(Cl)cc2)C1	5.4	-2.2	i	7	0.72	16	3	1.8	-2
Cc1c(Cl)ccc2c(C(O)CBr)cc(-c3ccccc3)nc12 (stereo unspecified)	2.1	0.7	i	·	0.7	-60	-74	-12	7
O=C(O)c1ccc(-c2ccc(/C=C3\NC(=O)N(Cc4ccc(Cl)cc4)C3=O)o2)cc1Cl	-89	-33	i	·	0.65	20	16	7.3	16
COc1ccc(C(C#N)(CC(=O)O)c2cnccn2)cc1OC (stereo unspecified)	-4.1	-3.3	i	-28	0.68	0	3	17	-4
COc1cc(/C=C(/C(=O)c2cccs2)c2nc3ccccc3[nH]2)cc(OC)c1O	5.7	1.5	·	100*	0.63	15	-1	2.8	2
O=[N+]([O-])c1cccc(-c2nnc(C34CC5CC(CC(C5)C3)C4)o2)c1	-4.9	2.0	·	-5	0.69	·	·	·	-18
C[C@]12CCC(=O)C=C1C=C[C@@H]1[C@@H]2CC[C@@]2(C)[C@H]1CC[C@@]21CCC(=O)O1	-1.1	3.4	i	-26	0.69	-12	-10	1.6	-7
Cc1cc(C(=O)N(C)CC(=O)Nc2ccccc2C(F)(F)F)c(C)o1	4.8	1.8	·	-2	0.74	·	·	·	-3
O=C(NC(=S)Nc1ccc(F)c([N+](=O)[O-])c1)c1ccccc1F	1.9	0.2	i	22	0.64	19	12	0.2	7
COc1ccc(/C=C/C(=O)OCC(=O)NCc2ccco2)cc1OC	-31	-4.6	·	-3	0.68	·	·	·	-4
O=C1CSC(c2cn(-c3ccccc3)nc2-c2cc3ccccc3oc2=O)N1Cc1ccccc1 (stereo unspecified)	-25	0.4	·	-7	0.79	·	·	·	-13
CC(C)CC(=O)Nc1sc2c(c1C(=O)O)CCCCC2	3.2	1.0	i	8	0.69	-3	-21	0.6	-4
CC(C)N(C)c1ncnc2c1ncn2[C@H]1CN(CCN2CCOCC2)C[C@@H](CO)O1	·	1.3	i	·	·	18	9	2.3	·
CCCCNC(=O)c1ccccc1SCC(=O)NC1CCCCCCC1	-0.6	-2.2	i	-4	0.67	-17	-40	-1.9	9
Cc1cc(C)n2nc(C(=O)OCC(=O)c3ccccc3Cl)nc2n1	0.4	1.6	i	-12	0.7	5	10	-3.6	-6

Assay outcomes deposited in PubChem BioAssay by several laboratories.

Not all compounds are listed (hit frequency here may not be typical).
